Vaccinia inh: blocks a specific stage of Vaccinia orthopoxvirus infection; 0.01% of 89,000 active; activity change (mCherry), % (test concentration not listed); Vaccinia-infected cells, mCherry/Venus stage reporter fluorescence; hits give low values; some inactives read as strong as hits; AID 1053133;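 active means mCherry past -33% and 40 or more points under the early reporter, replicates agreeing; inconclusive means past -33% without that gap or agreement; tested in A549 cells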;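 further: scaled between vehicle wells and reference inhibitor wells; 23 nL library stock went into each well; one replicate is shown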
Vaccinia inh Venus: second read-out of Vaccinia inh, no call of its own (marks repeat the call); activity change (Venus), %; measured here: Venus reporter, other viral stage;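 negative = less Venus signal; first of two replicates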
* marks the source's active call; other numbers are inactive results; ? = inconclusive; . = not tested or not shown; & = joins results of further samples. Only part of the results is shown. The share of hits here may be higher or lower than overall.

SMILES	Vaccinia inh	Vaccinia inh Venus
O=C(CC1CC1)N1CC2(C1)[C@@H](c1ccccc1)[C@@H](CO)N2C(=O)c1cccnc1	6	7
CO[C@H]1CC[C@H]2CCOc3ccc(C#N)cc3C(=O)N(C)C[C@@H](C)C(=O)N(C)C[C@H]1O2	14	6
C[C@H](CO)N1C[C@H](C)[C@H](CN(C)S(=O)(=O)c2ccc(C#N)cc2)Oc2ncc(C#Cc3ccccc3)cc2C1=O	?	.
COc1ccc(CN(C)C[C@@H]2Oc3c(NC(=O)Nc4cccc5ccccc45)cccc3C(=O)N([C@@H](C)CO)C[C@@H]2C)cc1	?	.
Cc1noc(C)c1NC(=O)N(C)C[C@H]1Oc2ccc(NC(=O)Nc3ccc(C(F)(F)F)cc3)cc2CC(=O)N([C@@H](C)CO)C[C@H]1C	6	-2
COCC#Cc1ccc([C@@H]2[C@@H](CO)N3C(=O)CN(C(=O)C4CCCC4)C[C@@H]23)cc1	-9	-6
C[C@H]1CN([C@@H](C)CO)C(=O)Cc2cc(NS(C)(=O)=O)ccc2O[C@@H]1CN(C)Cc1ccc(C(=O)O)cc1	8	7
C[C@@H]1CN([C@H](C)CO)C(=O)Cc2cc(NS(C)(=O)=O)ccc2O[C@H]1CN(C)C(=O)Nc1ccc2c(c1)OCO2	-14	4
C/C=C/c1ccc2c(c1)O[C@H](CN(C)C(=O)CN1CCOCC1)[C@@H](C)CN([C@H](C)CO)S2(=O)=O	30	17
O=C(CC(F)(F)F)N1C[C@H]2[C@@H](c3ccccc31)[C@H](CO)N2Cc1cccnc1	4	7
Cc1noc(C)c1NC(=O)Nc1ccc2c(c1)C(=O)N([C@H](C)CO)C[C@H](C)[C@@H](CN(C)S(=O)(=O)c1ccccc1)OCCCC[C@@H](C)O2	35	9
COCC(=O)N(C[C@@H]1N[C@@H](CO)[C@@H]1c1ccc(C2=CCCCC2)cc1)C(C)C	-6	-6
C[C@@H]1CCCCO[C@@H](CN(C)CC2CCCCC2)[C@@H](C)CN([C@@H](C)CO)C(=O)c2cc(NC(=O)Nc3ccccc3)ccc2O1	?	.
Cn1cnc(S(=O)(=O)N2CC[C@H]3[C@H](CO)Nc4ccc(-c5cccc(F)c5)cc4[C@H]32)c1	-17	-2
Cc1cccc(S(=O)(=O)N2C[C@@H](O)COC[C@@H]3O[C@@H](CC(=O)NCCCN4CCOCC4)CC[C@H]32)c1	-5	-3
C[C@@H]1CN([C@@H](C)CO)C(=O)Cc2cc(N(C)C)ccc2O[C@@H]1CN(C)Cc1ccccc1	-14	-14
C[C@H]1CN([C@@H](C)CO)C(=O)c2cc(NC(=O)Nc3ccc4c(c3)OCO4)ccc2O[C@H]1CN(C)S(=O)(=O)c1cn(C)cn1	34	19
O=C(C[C@H]1CC[C@H](NS(=O)(=O)c2ccccc2)[C@H](CO)O1)NCc1ccncn1	9	6
COc1cccc(C#Cc2ccc([C@H]3[C@@H](CO)N4C(=O)CN(C(C)=O)C[C@@H]34)cc2)c1	2	3
COc1ccc(OC(=O)N(C)C[C@H]2OCc3ccccc3-c3c(n(C)c4ccccc34)C(=O)N([C@H](C)CO)C[C@H]2C)cc1	?	.
C[C@H]1CN([C@@H](C)CO)C(=O)c2c(c3ccccc3n2C)-c2ccccc2CO[C@@H]1CN(C)Cc1ccc(Oc2ccccc2)cc1	?	.
O=C(NCC[C@@H]1CC[C@H](NC(=O)c2ccc3c(c2)OCO3)[C@@H](CO)O1)Nc1ccc(Cl)cc1	-6	-3
CN1C(=O)c2cc(NS(=O)(=O)c3ccc(Cl)cc3)ccc2OC[C@@H]2O[C@@H](CC(=O)O)CC[C@@H]21	19	11
C[C@@H]1CN([C@H](C)CO)C(=O)c2cc(NC(=O)Nc3cccc4ccccc34)ccc2O[C@H]1CN(C)CC1CCCCC1	-20	-11
C[C@H](CO)N1C[C@H](C)[C@@H](CN(C)Cc2ccc(C(F)(F)F)cc2)Oc2c(NS(=O)(=O)c3cn(C)cn3)cccc2C1=O	10	9

The closing five entries of the section before are carried over, then new ones follow:
SMILES	Vaccinia inh	Vaccinia inh Venus
C[C@H]1CN([C@@H](C)CO)C(=O)c2c(c3ccccc3n2C)-c2ccccc2CO[C@@H]1CN(C)Cc1ccc(Oc2ccccc2)cc1	?	.
O=C(NCC[C@@H]1CC[C@H](NC(=O)c2ccc3c(c2)OCO3)[C@@H](CO)O1)Nc1ccc(Cl)cc1	-6	-3
CN1C(=O)c2cc(NS(=O)(=O)c3ccc(Cl)cc3)ccc2OC[C@@H]2O[C@@H](CC(=O)O)CC[C@@H]21	19	11
C[C@@H]1CN([C@H](C)CO)C(=O)c2cc(NC(=O)Nc3cccc4ccccc34)ccc2O[C@H]1CN(C)CC1CCCCC1	-20	-11
C[C@H](CO)N1C[C@H](C)[C@@H](CN(C)Cc2ccc(C(F)(F)F)cc2)Oc2c(NS(=O)(=O)c3cn(C)cn3)cccc2C1=O	10	9
Cc1noc(C)c1NC(=O)Nc1cccc2c1O[C@H](CN(C)C(=O)Nc1c(C)noc1C)[C@H](C)CN([C@@H](C)CO)C2=O	-1	-5
O=C(NCC[C@H]1CC[C@H](NS(=O)(=O)Cc2ccccc2)[C@@H](CO)O1)C1CCCCC1	-4	0
CCC(=O)N1[C@H](C(=O)NCc2ccc(F)cc2)[C@@H](CO)[C@@H]2Cn3c(ccc(C4=CCCCC4)c3=O)[C@@H]21	6	7
O=C(Nc1ccccc1)N1CCCCN2[C@H](CO)[C@H](c3ccc(-c4ccncc4)cc3)[C@@H]2C1	3	-5
C[C@H]1CN([C@@H](C)CO)C(=O)c2cccc(NS(=O)(=O)c3cn(C)cn3)c2O[C@H]1CN(C)Cc1ccc2c(c1)OCO2	18	12
CCC(=O)N(C)C[C@H]1Oc2cc(C#CC3CC3)ccc2S(=O)(=O)N([C@@H](C)CO)C[C@H]1C	3	-2
C[C@@H]1CCCCO[C@@H](CN(C)C(=O)Nc2ccc3c(c2)OCO3)[C@H](C)CN([C@H](C)CO)C(=O)c2cc(NC(=O)Nc3ccc(F)cc3)ccc2O1	-15	-1
O=C(C[C@@H]1CC[C@H](NC(=O)Nc2cc(F)ccc2F)[C@H](CO)O1)Nc1ccccc1	-23	-20
CCCC#Cc1ccc2c(c1)O[C@@H](CN(C)Cc1ccccn1)[C@H](C)CN([C@H](C)CO)S2(=O)=O	?	.
CO[C@@H]1CN(C)C(=O)c2ccc(NS(=O)(=O)c3ccccc3F)cc2OC[C@@H](C)N(S(C)(=O)=O)C[C@H]1C	18	13
C[C@H](CO)N1C[C@H](C)[C@H](CN(C)S(=O)(=O)c2ccc(Cl)cc2)OCCCC[C@H](C)Oc2ccc(N(C)C)cc2C1=O	-5	2
C/C=C/c1ccc([C@H]2[C@@H](CO)N(Cc3cncnc3)C23CN(C(=O)CC)C3)cc1	0	-1
COc1cccc(S(=O)(=O)N[C@H]2C=C[C@@H](CC(=O)NCc3ccc(Cl)cc3)O[C@@H]2CO)c1	0	-5
COc1ccc(NC(=O)N[C@@H]2CC[C@@H](CCn3cc(-c4ccccc4F)nn3)O[C@H]2CO)cc1	9	15
C[C@H]1CN([C@@H](C)CO)C(=O)c2cc(NC(=O)CCC(F)(F)F)ccc2O[C@H]1CN(C)S(=O)(=O)c1cn(C)cn1	11	4
COCC(=O)N1CC(=O)N2[C@H](CO)[C@@H](c3ccc(C#CC(C)C)cc3)[C@@H]2C1	4	-3
COc1ccc(NC(=O)Nc2ccc3c(c2)CC(=O)N([C@H](C)CO)C[C@H](C)[C@H](CN(C)S(=O)(=O)c2cn(C)cn2)O3)cc1	-7	0
C[C@]12CCC(=O)N1CCc1c2[nH]c2ccccc12	4&12	-3&5
COC(=O)C[C@@H]1CC[C@H]2[C@@H](COc3ccc(NC(=O)Nc4cccc(Cl)c4)cc3C(=O)N2C)O1	4	2
C[C@H](CO)N1C[C@H](C)[C@@H](CN(C)C(=O)Nc2ccccc2)Oc2ccc(N(C)C)cc2CC1=O	15	-9
CO[C@H]1CN(C)C(=O)c2cc(NC(=O)C3CCCCC3)ccc2OC[C@H](C)N(C)C[C@H]1C	-8	-5
COc1ccc(C#Cc2cccc(-c3nc(C(=O)NCCCN4CCOCC4)cc4c3[C@@H](CCO)N(S(=O)C(C)(C)C)C4)c2)cc1OC (stereo partly drawn)	-25	-13
C[C@@H]1CN([C@H](C)CO)C(=O)c2cc(NC(=O)CCCCCC(=O)Nc3ccccc3N)ccc2O[C@H]1CN(C)C(=O)Nc1ccc2c(c1)OCO2	5	3
C[C@@H]1CCCCO[C@@H](CN(C)Cc2ccc(C(=O)O)cc2)[C@H](C)CN([C@H](C)CO)C(=O)c2cc(NC(=O)c3ccncc3)ccc2O1	29	9
COc1ccccc1NC(=O)N(C)C[C@@H]1OCc2ccccc2-c2ccccc2C(=O)N([C@@H](C)CO)C[C@@H]1C	19	13
SMILES	Vaccinia inh	Vaccinia inh Venus
O=C(C[C@H]1CC[C@@H]2[C@H](COC[C@H](O)CN2C(=O)c2ccccc2F)O1)NCc1ccccc1	10	12
C[C@H](CO)N1C[C@H](C)[C@@H](CN(C)C(=O)c2cccc(F)c2)Oc2ncc(-c3cccnc3)cc2C1=O	-3	-5
COc1ccc(C#Cc2ccc3c(c2)O[C@H](CN(C)C(=O)CN2CCOCC2)[C@H](C)CN([C@H](C)CO)S3(=O)=O)cc1	?	.
C[C@@H]1CN([C@H](C)CO)C(=O)Cc2cc(NC(=O)CCC(F)(F)F)ccc2O[C@@H]1CN(C)Cc1ccc(Cl)c(Cl)c1	?	.
CCCNC(=O)C[C@H]1CC[C@@H]2[C@H](COC[C@H](O)CN2C(=O)c2ccc(F)cc2)O1	18	13
O=C(c1ccccc1)N1CC(=O)N2[C@@H](CO)[C@H](c3ccc(C#Cc4ccccc4)cc3)[C@@H]2C1	-15	-15
C[C@H](CO)N1C[C@H](C)[C@@H](CN(C)S(=O)(=O)c2ccc(Cl)cc2)Oc2ccc(NC(=O)NC3CCCCC3)cc2CC1=O	-16	1
C[C@@H]1CN([C@H](C)CO)C(=O)CCCn2nncc2CO[C@H]1CN(C)Cc1ccncc1	23&-6	22&-12
CCCC#Cc1cnc2c(c1)C(=O)N([C@H](C)CO)C[C@@H](C)[C@@H](CN(C)C(=O)Nc1cc(F)ccc1F)O2	-1	1
CO[C@H]1CN(C)C(=O)c2cc(NC(=O)Nc3ccccc3)ccc2OC[C@H](C)N(C(=O)Nc2c(C)noc2C)C[C@@H]1C	-1	5
CO[C@H]1CC[C@H]2CCN(C)C(=O)CCCN(C)C(=O)c3cccc(C#N)c3OC[C@H]1O2	11	5
O=C(C[C@@H]1CC[C@H]2[C@@H](COC[C@@H](O)CN2C(=O)Nc2ccc(Cl)cc2)O1)NC1Cc2ccccc2C1	-24	-9
C[C@H](CO)N1C[C@H](C)[C@@H](CN(C)S(=O)(=O)c2ccccc2)Oc2ccc(NC(=O)CCC(F)(F)F)cc2C1=O	10	2
COCC(=O)Nc1ccc2c(c1)C(=O)N(C)C[C@@H](OC)[C@H](C)CN(C(=O)NC(C)C)[C@@H](C)CO2	-1	4
N#Cc1ccc(-c2ccc3c(c2)[C@@H]2[C@@H](CCN2S(=O)(=O)c2cccc(F)c2)[C@H](CO)N3)cc1	-33	-31
CO[C@@H]1CN(C)C(=O)c2ccc(NS(C)(=O)=O)cc2OC[C@@H](C)N(C(=O)CC2CC2)C[C@@H]1C	4	4
Cc1ccc(S(=O)(=O)Nc2ccc3c(c2)C(=O)N([C@@H](C)CO)C[C@@H](C)[C@H](CN(C)Cc2ccc(C(=O)O)cc2)OCCCC[C@H](C)O3)cc1	33	20
O=C(c1ccccc1F)N1CC(=O)N2[C@H](CO)[C@@H](c3ccc(-c4cccnc4)cc3)[C@@H]2C1	16	7
CC(C)CC#Cc1ccc([C@@H]2[C@H](CO)N3C(=O)CN(S(=O)(=O)c4cccc(F)c4)C[C@@H]23)cc1	-9	-11
C[C@H]1CN([C@@H](C)CO)C(=O)c2cc(NS(=O)(=O)c3cccs3)ccc2O[C@H]1CN(C)Cc1ccc(-c2ccccc2)cc1	-20	-19
C=CCN1C(=O)[C@@]2(O[C@@H](CCO)[C@H]([Si](C)(C)c3ccc(OC)cc3)[C@H]2C)c2cc(NC(C)=O)ccc21	?	.
C[C@H]1CN([C@@H](C)CO)C(=O)c2cc(NC(=O)Cc3ccccc3)ccc2O[C@H]1CN(C)Cc1ccc(C(=O)Nc2ccccc2N)cc1	-14	-7
CCCNC(=O)[C@H]1[C@H](CO)[C@H]2Cn3c(ccc(C4=CCCC4)c3=O)[C@H]2N1Cc1ccccc1	-6	11
c1ccc(CN2[C@@H]3CNC[C@H]2C3c2ccc(-c3ccncc3)cc2)nc1 (stereo partly drawn)	12	5
CC(C)C#Cc1ccc([C@@H]2[C@H]3CN(C(=O)c4ccc(F)cc4)CCCCN3[C@H]2CO)cc1	?	.
Cc1noc(C)c1NC(=O)N(C)C[C@@H]1Oc2ccc(NC(=O)NC3CCCCC3)cc2C(=O)N([C@H](C)CO)C[C@@H]1C	15	14
CN1CCN(C(=O)C[C@H]2C[C@@H]3c4cc(NC(=O)Nc5ccc(C(F)(F)F)cc5)ccc4O[C@@H]3[C@@H](CO)O2)CC1	-3	-5
COc1ccc(CN(C)C[C@@H]2Oc3ccc(NC(=O)NC4CCCCC4)cc3CC(=O)N([C@@H](C)CO)C[C@@H]2C)cc1	-2	-3

Full records, quoted from the list. Order of screens: Vaccinia inh | Vaccinia inh Venus
c1ccc(CN2[C@@H]3CNC[C@H]2C3c2ccc(-c3ccncc3)cc2)nc1 (stereo partly drawn) is listed as 12 | 5
CO[C@H]1CN(C)C(=O)c2cc(NC(=O)Nc3ccccc3)ccc2OC[C@H](C)N(C(=O)Nc2c(C)noc2C)C[C@@H]1C is listed as -1 | 5
CCCNC(=O)[C@H]1[C@H](CO)[C@H]2Cn3c(ccc(C4=CCCC4)c3=O)[C@H]2N1Cc1ccccc1 is listed as -6 | 11
CCCNC(=O)C[C@H]1CC[C@@H]2[C@H](COC[C@H](O)CN2C(=O)c2ccc(F)cc2)O1 is listed as 18 | 13
O=C(c1ccccc1F)N1CC(=O)N2[C@H](CO)[C@@H](c3ccc(-c4cccnc4)cc3)[C@@H]2C1 is listed as 16 | 7

Screening data: PubChem, Broad Institute
